# Compound activity: PubChem BioAssay, National Center for Advancing Translational Sciences (NCATS)
# gsp antagonist: gsp mutant antagonism | 340,000 compounds, 0.4% hits | Potency, µM (titrated, usually from 76.9 µM), for the others: top-dose activity change, negative = inhibition, most hits filed as inhibitors | gsp-mutant cells, cAMP HTRF, 30 min; control for the full effect not named in the record | AID 624288; active = falling curve of any shape with a large fitted effect; inconclusive = falling curve, mostly with a smaller effect; inactive = flat or rising curve; cell line not stated here;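 also: intracellular cAMP measured with PDE inhibitor Ro 20-1724 present during compound exposure; potency is read from the fitted curve at half-maximal effect; % is scaled to controls: 0 for no effect and ±100 for the full control effect; nearly all actives have a fitted effect of over 65% in size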
#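 Measurement of cellular cAMP by homogeneous time-resolved fluorescence following a 30 min compound exposure at 37C. The PDE inhibitor […] was present throughout; the assay buffer was DPBS with 0.05% BSA and 0.005% Tween 20.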
# gsp ag: gsp mutant agonism. gsp mutant cells, cAMP HTRF, 30 min; control for the full effect not named in the record. Potency, µM (doses to about 76.9 µM), without a hit: at the top dose activation (cAMP increase), hits mostly activators. 340,000 compounds, 0.13% hits; active = well fitted activation curve with a large enough effect; inconclusive = small, poorly fitted or top-dose-only effect, or another doubt; inactive = no such curve, though single readings can be large or run the other way; cell line not stated here;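 also: phosphodiesterase inhibitor Ro 20-1724 added with compounds to block cAMP breakdown; potency is read from the fitted curve at half-maximal effect; nearly all actives have a fitted effect of over 60% in size; about a fifth of the inactives were tested at one dose only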
#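 Cells in DMEM/10% FBS with G418 were pretreated with compounds in DMSO plus […] (300 uM stock) for 30 min at 37C. cAMP was measured by HTRF (cAMP-d2 plus anti-cAMP antibody-K) after 30 min at room temperature.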
# TRPV1 potentiator: potentiators of human vanilloid receptor 1 (TRPV1). Q8NER1. TRPV1-expressing cells, Fluo-8 calcium influx, capsaicin EC20 potentiation; host cell line not named in the record; control for the full effect not named in the record. potentiation, % at 8.33 µM. 320,000 compounds, 0.02% hits; active means potentiation above 80%; inconclusive means 30% to 80%; inactive means below 30%; also: 0% is about no effect
# Target sequence (Q8NER1 whole entry, looked up): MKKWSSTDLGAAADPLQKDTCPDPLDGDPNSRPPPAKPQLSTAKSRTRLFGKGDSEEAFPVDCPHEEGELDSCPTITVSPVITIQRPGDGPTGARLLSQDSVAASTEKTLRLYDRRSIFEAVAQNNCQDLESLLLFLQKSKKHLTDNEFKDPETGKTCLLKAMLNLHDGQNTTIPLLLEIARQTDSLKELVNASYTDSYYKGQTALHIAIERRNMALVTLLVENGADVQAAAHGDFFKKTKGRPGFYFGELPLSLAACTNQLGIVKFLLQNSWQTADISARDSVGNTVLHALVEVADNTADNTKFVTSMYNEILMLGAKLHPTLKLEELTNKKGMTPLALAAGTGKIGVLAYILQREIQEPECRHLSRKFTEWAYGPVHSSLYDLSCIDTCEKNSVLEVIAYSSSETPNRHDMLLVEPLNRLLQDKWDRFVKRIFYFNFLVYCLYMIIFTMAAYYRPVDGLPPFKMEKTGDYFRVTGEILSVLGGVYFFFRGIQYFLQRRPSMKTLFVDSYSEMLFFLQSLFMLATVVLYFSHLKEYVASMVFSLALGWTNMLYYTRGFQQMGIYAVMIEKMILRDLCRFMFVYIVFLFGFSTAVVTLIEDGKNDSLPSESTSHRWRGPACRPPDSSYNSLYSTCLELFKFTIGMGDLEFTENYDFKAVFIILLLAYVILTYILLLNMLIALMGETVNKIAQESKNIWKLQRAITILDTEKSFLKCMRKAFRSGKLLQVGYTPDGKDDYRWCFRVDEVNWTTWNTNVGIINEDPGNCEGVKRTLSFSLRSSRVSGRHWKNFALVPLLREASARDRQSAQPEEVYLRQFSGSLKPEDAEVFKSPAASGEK
#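 Cells expressing TRPV1 were dye-loaded with Fluo-8 and read kinetically: 10 s baseline, 3 min after compound (agonist portion), then 2 min after EC20 capsaicin (allosteric enhancer portion). Calcium-bound dye fluorescence at 480/520 nm.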
# Sfp inh: Sfp phosphopantetheinyl transferase inhibition; AID 1490; 310,000 compounds, 3.5% hits; Q9F4F7; Potency, µM, for inactives: max response, negative = inhibition, hits mostly inhibitors; Biochemical Sfp PPTase activity, qHTS; active = well fitted inhibition curve with a large enough effect; inconclusive = small, poorly fitted or top-dose-only effect, or another doubt; inactive = no such curve, though single readings can be large or run the other way;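 also: the enzyme is Sfp with the accession as filed and its product quenches rhodamine fluorescence; potency is read from the fitted curve at half-maximal effect; 0% = enzyme reaction without inhibitor and -100% = no enzyme wells; top concentration of the series not given in the record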
#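 Fluorescence-quenching assay with 15 nM Sfp, 5 uM rhodamine-CoA and 12.5 uM BHQ-2-labelled ybbR peptide in pH 7.6 Hepes/MgCl2 buffer. Enzyme was pre-incubated with compound for 15 min at room temperature. Rate was taken from the 30-min fluorescence change (525/598 nm).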
# ClpP mod: qHTS Assay for Activators of ClpP; ATP-dependent Clp protease proteolytic subunit (Bacillus subtilis (strain 168)), P80244; 340,000 compounds, 1.9% hits; purified B. subtilis ClpP, FRET peptide cleavage, 20 min; Potency, µM (titrated, usually from 57.5 µM), for inactives: at the highest dose activity change, negative = active; active = well fitted falling curve with a large enough effect; inconclusive = small, poorly fitted or top-dose-only effect; inactive = no such curve, though single readings can be large or run the other way; also: potency is read from the fitted curve at half-maximal effect; the source files actives as falling curves though it sought activators and does not explain the sign; nearly all actives have a fitted effect of over 65% in size; many hits overshoot -100%
# Target sequence (P80244 whole entry, looked up): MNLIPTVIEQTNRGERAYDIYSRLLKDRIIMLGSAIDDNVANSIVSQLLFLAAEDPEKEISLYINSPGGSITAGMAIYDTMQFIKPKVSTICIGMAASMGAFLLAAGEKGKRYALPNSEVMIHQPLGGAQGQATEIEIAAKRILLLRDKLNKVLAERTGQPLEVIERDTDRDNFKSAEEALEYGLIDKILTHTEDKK
#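 ClpP 10 microg/mL final, pH 8 Tris/KCl buffer with BSA, glycerol, Tween-20; compound pinned in; FRET-FV substrate; RT 20 min; Ex320/Em430; ΔFRET vs ADEP 5.8 microM, DMSO, no enzyme.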
# Menin-MLL FL inh: inhibitors of human menin-MLL interaction, wild-type MLL peptide. Fluorescence polarization, fluorescein-MLL peptide displacement from menin. FP activity change, % at 61.4 µM. 290,000 tested, under 10 active. AID 1766; inconclusive = falling polarisation curve, or a change in total fluorescence; inactive = total fluorescence flat and polarisation flat or rising; no compound was filed as active; the % refers to the polarisation; negative = inhibition;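 also: % of control where 0% means no effect; inhibitors lower the polarisation; unlabelled MLL peptide was the positive control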
# TRPML1 blocker: inhibitors of human TRPML1 channel. Q9GZU1. TRPML1-inducible cells, Ca2+ dye fluorescence, FDSS; stronger effect = lower value; inhibition of EC80 agonist-evoked calcium signal. activity change, negative = inhibition, % (concentration not given with the values). 390,000 compounds, 0.02% hits; in the data active means activity change below about -50%; inconclusive means about -30% to -50%; inactive means above about -30%;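 also: stimulus is agonist 54-4 at its EC80 concentration; % is scaled to controls: 0 for no effect and ±100 for the full control effect; the text of the record puts the active cut at -80%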
#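 TRPML1-DL cells, Tet-induced overnight (~16 h, 37 °C) at 1,500 cells/well, were loaded with Ca8 no-wash dye plus quencher for 45-90 min at room temperature. Compounds were pinned during FDSS kinetic reading; agonist 54-4 at EC80 (4 uM final) then added.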
# Numbers without * were called inactive; u = inconclusive; x = no result given; [ ] = remark or other dose.
SMILES,gsp antagonist,gsp ag,TRPV1 potentiator,Sfp inh,ClpP mod,Menin-MLL FL inh,TRPML1 blocker
Fc1cccc(Cl)c1Cn1nnc2c(NCc3ccncc3)ncnc21,-4%,u,-6,-6%,-2.4%,8.0,4
COC(=O)c1ccc(SC2CCCCC2)c([N+](=O)[O-])c1,-8%,5%,5,0%,-1.2%,-1.8,11
COc1ccc(/C=C(/CC(=O)Nc2ccc(C)cc2)c2nc3ccccc3s2)cc1,12%,-11%[15.4 µM],3,-7%,0.5%,2.0,2
Cc1c(Br)c([N+](=O)[O-])nn1CC(=O)Nc1ccc(CC#N)cc1,x,x,6,5%,x,-4.2,x
COc1ccc(NC(=O)CCN2C(=O)c3ccncc3C2=O)cc1OC,1%,1%,u,14%,0.7%,-1.5,-5
COc1ccc(-c2nnc(N(C)C(=O)c3ccco3)s2)cc1OC,5%,15%,-17,12%,x,-3.7,-27
Cc1ccc(C)c(N2CCN(C(=O)C3CCCCN3S(=O)(=O)c3ccc(F)cc3)CC2)c1 (stereo not given),-14%,-8%,-1,5%,0.9%,1.8,21
Cc1cccc(N2CCN(C(=O)c3oc4ccc(Br)cc4c3C)CC2)c1C,-1%,5%,x,x,-0.5%,x,-1
O=C(CC1(O)C(=O)Nc2ccccc21)c1ccc(-n2cccc2)cc1 (stereo not given),-5%,16%,-2,-2%,1.7%,5.3,-15
Cc1c(Cl)cccc1N(CC(=O)NC(C)c1ccccc1)S(C)(=O)=O (stereo not given),0%,0%[15.4 µM],-2,21%,-1.4%,3.0,7
CC(C)(C)CC(=O)Nc1nnc(SCC(=O)NC2CCCCC2)s1,8%,-15%[15.4 µM],-4,27%,x,4.0,-3
O=c1c2ccccc2cnn1Cc1cccc(Br)c1,-6%,u,-9,2%,x,2.5,6
C=CCn1c(N)c(C(=O)OCC(C)C)c2nc3ccccc3nc21,-4%,0%[15.4 µM],u,6%,u,0.9,-16
COc1ccc(CCNC(=S)N2CCC(C(=O)c3ccc(F)cc3)CC2)cc1OC,u,-5%,-10,17%,2.7%,-0.4,15
CC(C)COc1ccc(CN=C(N)N=C(N)N)cc1Cl,9%,u,0,-8%,0.7%,0.5,9
CN(C)S(=O)(=O)c1cc(NC(=O)CNCCN2CCOCC2)ccc1Cl,9%,-26%,-12,u,-0.7%,2.2,7
N#Cc1c(-c2ccc(Cl)cc2)n(O)c2ccccc12,-9%,12%,x,x,-14%,x,11
Cn1cc(C(=O)NCCN2CCN(c3cccc(Cl)c3)CC2)c2c3ccccc3n(C)c2c1=O,1%,8%,-1,12%,-7.2%,-0.7,-1
CC(C)c1ccc2c(c1)C1(NN=C(c3ccccc3)S1)C(=O)N2 (stereo not given),-3%,11%,0,-11%,-4.6%,0.9,20
Cc1cc(C)c(NC(=O)COC(=O)CCc2ccc(S(=O)(=O)N3CCCCC3)cc2)c(C)c1,1%,-13%,-4,19%,x,-1.4,-19
CCOC(=O)c1c(NC(=O)CSc2nnc(Cc3ccccc3)o2)sc(C(C)=O)c1C,-24%,u,-2,-5%,-0.4%,1.3,-2
COC(=O)N1[C@H](C)C=C[C@]1(Cc1ccccc1)C(=O)OC,5%,u,x,-1%,-0.1%,-2.2,44
Nc1ccc(CN2CCCCCC2)cc1,11%,9%,-11,-16%,-2.2%,-1.1,26
COC(=O)c1ccc(NC(=O)CN2C(=O)CSC2=O)cc1,2%,6%,18,-8%,0.8%,2.6,9
Cc1cc(=O)oc2c(C)c(OCC(=O)N3CCN(c4ccccc4)CC3)ccc12,-2%,-32%,-4,3%,-17%,-0.8,-7

# Continuation.
SMILES,gsp antagonist,gsp ag,TRPV1 potentiator,Sfp inh,ClpP mod,Menin-MLL FL inh,TRPML1 blocker
Cc1ccc(NC(=S)N(CCCN2CCCC2)Cc2cccn2Cc2ccc(Cl)cc2)cc1C,-1%,-1%[15.4 µM],4,3%,x,-4.5,-2
CC(O)c1cccc(NC(=O)C2CCCCC2)c1 (stereo not given),-5%,-77%[inhibitor],9,19%,-0.6%,0.8,-19
C=CCSc1nc2c(c(=O)[nH]c(=O)n2C)n1Cc1ccc(C)cc1,0%,-4%,-7,-15%,-4.6%,2.4,6
Cc1[nH]nc(SCC(=O)N2CCC(C)CC2)c1[N+](=O)[O-],6%,-2%,-21,89µM*,0.0%,2.8,-1
O=C(O)C1(P(=O)(c2ccc(Cl)cc2)c2ccc(Cl)cc2)CCCC1,9%,u,8,20%,1.2%,-0.5,-15
NNC(=O)COc1cccc(C(F)(F)F)c1,x,-7%[15.4 µM],-7,-3%,x,0.4,-16
FC(F)(F)c1nc(=S)c2ccccc2[nH]1,25%,2.2µM*,3,20µM*,2.6%,2.3,3
Cc1cc(/C=C(\C#N)C(=O)OCC(=O)NC(=O)NC(C)(C)C)c(C)n1CCC(C)C,1%,-25%,-7,11%,-9.8%,4.5,-13
N/C(=N\OC(=O)COc1ccc2ccccc2c1Br)c1ccccn1,11%,u,24,56µM*,1.5%,1.9,2
COC(=O)C1=C(N)N(c2ccc(F)cc2)C2=C(C(=O)CCC2)C1c1ccc2c(c1)OCO2 (stereo not given),12%,-37%[inhibitor],12,12%,8.1%,5.1,10
C=CCn1c(SCC(=O)NCC)nnc1-c1cc2c(s1)CCC(CC)C2 (stereo not given),-17%,-8%[15.4 µM],-14,0%,-18%,2.2,-4
COc1ccc(-c2ccc3[nH]c4c(c3c2)CCN2C(=O)[C@@H]([C@H](C)O)[C@@H](N(C)C(=O)Nc3cc(Cl)cc(Cl)c3)C[C@@H]42)cc1,x,-22%,x,x,4.0%,x,26
O=C(CC1S/C(=N/N=C/c2cccs2)NC1=O)Nc1ccc(Cl)cc1 (stereo not given),9%,-24%,1,-3%,2.0%,-0.7,-6
CC(C)(C)OC(=O)N1CC2(CCCCC2)CC1Cc1ccc(C(F)(F)F)cc1 (stereo not given),x,-24%,x,x,-0.2%,x,-16
CN(C)C(=O)c1ccc(NC(=O)COC(=O)C2(c3ccccc3)CCCC2)cc1,-16%,-31%[inhibitor],x,x,-1.1%,x,-5
OCCC1CN(Cc2cc3c(cc2Cl)OCO3)CCN1C1CCCCC1 (stereo not given),13%,7%[15.4 µM],0,18%,x,-1.9,22
CSc1nc(SCc2ccccc2)[nH]c(=O)n1,x,u,x,x,-4.5%,x,7
CC(=O)Nc1cccc(C2=CC(c3ccco3)n3ncnc3N2)c1 (stereo not given),x,x,2,-22%,x,u,x
Cc1cccc(Nc2nc(-c3ccccn3)cs2)n1,2%,9%,7,u,-4.3%,-2.3,-6
O=C(Nc1cccnc1)c1cc(S(=O)(=O)N2CCOCC2)ccc1Br,9%,-7%[15.4 µM],-7,13%,-3.4%,-8.4,-3
COc1ccc(CN2CCc3c([nH]c4ccccc34)C2)c(OC)c1C,3%,14%[15.4 µM],-1,-24%,28µM*,2.6,-15
COc1cccc(NS(=O)(=O)c2ccc3c(c2)n(C)c(=O)c(=O)n3C)c1,13%,u,-4,20%,-0.6%,-0.6,24
Cc1cccc(Oc2nc(-c3ccccc3)cc(C)c2S(C)(=O)=O)c1C,-2%,1%,-6,9%,u,2.4,28
CCOc1ccc(C2C(C(N)=O)=C(C)Nc3ncnn32)cc1OC (stereo not given),12%,u,5,11%,-1.2%,-2.5,-6
Cn1ncc(Br)c1C(=O)N1CCCCCC1,-9%,14%[15.4 µM],13,2%,-2.3%,x,-16

# Compound profiles, as listed above. Order of screens: gsp antagonist | gsp ag | TRPV1 potentiator | Sfp inh | ClpP mod | Menin-MLL FL inh | TRPML1 blocker
# Results for `C=CCn1c(SCC(=O)NCC)nnc1-c1cc2c(s1)CCC(CC)C2` (stereo not given) → -17% | -8%[15.4 µM] | -14 | 0% | -18% | 2.2 | -4
# Results for `CC(O)c1cccc(NC(=O)C2CCCCC2)c1` (stereo not given) → -5% | -77%[inhibitor] | 9 | 19% | -0.6% | 0.8 | -19
# Results for `N/C(=N\OC(=O)COc1ccc2ccccc2c1Br)c1ccccn1` → 11% | u | 24 | 56µM* | 1.5% | 1.9 | 2

# (more compounds)
SMILES,gsp antagonist,gsp ag,TRPV1 potentiator,Sfp inh,ClpP mod,Menin-MLL FL inh,TRPML1 blocker
COc1cc(C)c(NC(=S)Nc2cccc(Cl)c2C)cc1OC,1%,-35%[inhibitor],-5,u,0.8%,-7.1,-14
COc1ccc(-c2nn(-c3ccccc3)cc2/C=N/Nc2ccccn2)cc1,x,x,-1,7%,x,-4.1,x
CCOC(=O)CN(C(=O)c1snc(C(N)=O)c1N)C(C(=O)NCCC(C)C)c1ccc(C)cc1 (stereo not given),x,-91%[inhibitor],x,x,-19%,x,-1
O=C(Cn1nnc(-c2ccc(N3CCOCC3)cc2)n1)N1CCOCC1,13%,-11%,-1,5%,0.1%,-0.4,15
COc1cc2ncc(S(=O)(=O)c3ccccc3)c(N3CCC4(CC3)OCCO4)c2cc1OC,-3%,27%,-8,4%,-1.3%,-5.9,11
CCOC(=O)Cc1ncccc1C(=O)Nc1ccc(OC(F)(F)F)cc1,x,-12%[15.4 µM],13,13%,x,11,1
CC[n+]1c(/C=C/Nc2ccccc2)sc2ccccc21,45µM*,10%,-11,-18%,-2.1%,0.9,9
FC(F)(F)c1cccc(-c2nc(-c3ccncc3)no2)c1,9%,-2%[15.4 µM],13,16%,-1.2%,-1.3,11
COc1ccc(OC)c(C(O)c2nc3ccccc3n2C)c1 (stereo not given),1%,-31%[inhibitor],6,17%,1.1%,2.2,3

# 2 of these compounds in another layout.
SMILES | gsp antagonist | gsp ag | TRPV1 potentiator | Sfp inh | ClpP mod | Menin-MLL FL inh | TRPML1 blocker
COc1cccc(NS(=O)(=O)c2ccc3c(c2)n(C)c(=O)c(=O)n3C)c1 | 13% | u | -4 | 20% | -0.6% | -0.6 | 24
Cc1cccc(Oc2nc(-c3ccccc3)cc(C)c2S(C)(=O)=O)c1C | -2% | 1% | -6 | 9% | u | 2.4 | 28
